Mtb bLac sens = beta-lactam sensitization of Mtb H37Rv, H37Rv. inhibition, % at 25 µM. M. tuberculosis H37Rv growth with meropenem, percent inhibition; hits of this screen are not shown here. 0.27% of 330,000 active;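 active = about 74% or more and at least 40 points above the plate without the antibiotic, then above 30% in a dose series; inconclusive = first-round hits that could not be retested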;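 also: growth measured after seven days incubation then overnight dye step; 0% = bacteria only wells and 100% = bacteria with antibiotic; twin plates without the antibiotic show which effects depend on it; some results filed as inactive read as strong as hits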
Mtb H37Rv = M. tuberculosis H37Rv growth inhibitors, H37Rv strain (AID 1626). inhibition, % at 10 µM; hits with a dose series show IC50 in µM. M. tuberculosis H37Rv growth inhibition; higher % means a stronger effect. 0.95% of 220,000 active;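 active = confirmed in a dose series; inconclusive = inhibition above 80% but not taken into the dose series; inactive = below 80% or under 30% at every dose of the series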;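 also: bacteria incubated seven days before Alamar blue readout; 0% = bacteria only wells and 100% = bacteria with antibiotic wells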
RecA splice inh = Mtb RecA intein splicing inhibitors, primary screen, biochemical, fluorescence, HTS. 0.75% of 290,000 active. inhibition, %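 (about 9 µM by stock and volumes)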. cell-free RecA intein splicing. AID 2221, 2009; in the data active = inhibition above about 30%; inconclusive = no clear call, values can overlap the other calls;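 also: 0% = vehicle wells and 100% = reference inhibitor control wells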
Target sequence (P9WHJ3 whole entry, looked up, canonical isoform): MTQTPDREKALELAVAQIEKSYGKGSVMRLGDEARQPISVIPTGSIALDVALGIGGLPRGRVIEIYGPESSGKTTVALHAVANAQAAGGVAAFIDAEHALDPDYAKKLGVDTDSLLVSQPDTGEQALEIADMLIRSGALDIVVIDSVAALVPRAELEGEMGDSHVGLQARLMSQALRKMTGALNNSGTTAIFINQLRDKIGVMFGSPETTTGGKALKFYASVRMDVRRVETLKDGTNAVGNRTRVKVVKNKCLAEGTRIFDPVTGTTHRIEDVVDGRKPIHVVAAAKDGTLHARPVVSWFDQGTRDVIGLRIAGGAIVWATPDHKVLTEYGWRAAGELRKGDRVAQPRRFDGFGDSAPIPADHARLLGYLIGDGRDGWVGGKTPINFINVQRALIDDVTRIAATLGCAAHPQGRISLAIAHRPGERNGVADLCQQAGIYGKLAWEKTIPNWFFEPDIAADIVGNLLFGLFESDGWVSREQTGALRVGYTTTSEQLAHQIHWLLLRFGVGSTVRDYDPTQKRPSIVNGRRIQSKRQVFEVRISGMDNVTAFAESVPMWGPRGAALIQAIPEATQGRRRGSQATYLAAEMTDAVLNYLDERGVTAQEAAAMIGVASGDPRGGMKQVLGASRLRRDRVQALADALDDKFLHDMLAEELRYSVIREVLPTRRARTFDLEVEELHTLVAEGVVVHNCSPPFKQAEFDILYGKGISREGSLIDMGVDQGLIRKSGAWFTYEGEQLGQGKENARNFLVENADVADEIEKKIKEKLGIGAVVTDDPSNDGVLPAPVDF
Arbovirus anti = antivirals against arbovirus infection, primary screen, cell-based, full library, 10K replicate subset. arbovirus infection cell-based antiviral screen. inhibition, % at 10 µM. 0.37% of 200,000 active;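 active = inhibition from about 30%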;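 also: bluetongue infection of BSR cells; cell survival read as ATP light after 72 h; 0% = infected wells without compound and 100% = uninfected wells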
YopH PTP inh = YopH tyrosine phosphatase inhibitors, primary screen, biochemical, fluorescence Ex485/Em525; YopH tyrosine phosphatase [Yersinia enterocolitica]; 0.16% of 140,000 active; inhibition, %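 (about 10 µM by stock and volumes)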; AID 898, 2007;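 active = inhibition of 50% or more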;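 also: controls were vehicle for no effect and minimum signal wells for full effect; inactives centre near -20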
Arbovirus anti repeat = second read-out of Arbovirus anti, no call of its own (marks repeat the call); inhibition, %; measured here: 10K subset replicate screen; many hits read low in the repeat;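 first of two repeat runs on a subset; 0% = infected and 100% = uninfected wells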
* = called active by the depositor; ? = inconclusive; · = not tested or not shown. A portion of the library (hit frequency here may not be typical).

SMILES	Mtb bLac sens	Mtb H37Rv	RecA splice inh	Arbovirus anti	YopH PTP inh	others
Cc1ccc(NC(=O)CCNS(=O)(=O)c2cc(Br)cnc2N)c(Cl)c1	-5	-7%	-1.2	2	-15
COc1ccc2c(c1)-c1ccccc1S(=O)(=O)N2C(C)=O	-3	-4%	·	4	-22
CCC(=O)Nc1ccc(NC(=O)CSc2nnnn2-c2cccnc2)cc1C	4	5%	0.2	-2	-12
O=C(Nc1ccc(Oc2ccc(C(=O)O)c(C(=O)O)c2)cc1)c1cccs1	-1	-13%	0.4	-5	·
COc1ccccc1N1CCN(CC(O)c2ccc3cc[nH]c3c2)CC1 (stereo not drawn)	-8	2%	10	2	-12	Arbovirus anti repeat=-2
O=C(CSc1nc(-c2ccccc2)c(-c2ccccc2)[nH]1)Nc1ccc2c(c1)OCO2	-10	-9%	-1.0	-12	-20
COc1cc2c(cc1OC)-c1nc3ccccc3c(=O)n1C(C)(C)C2	91	-5%	2.8	0	-6
Cc1cc(F)ccc1S(=O)(=O)N1CCCOC1CNC(=O)C(=O)NCc1ccco1 (stereo not drawn)	-5	-8%	2.0	-1	-26
CNc1nc(SCC(=O)Nc2ccccc2)nc(N2CCOCC2)n1	-3	·	1.1	·	·
COc1c(/C=C2\SC(=Nc3ccccc3Cl)NC2=O)cccc1[N+](=O)[O-]	5	·	12	·	·
CC1CCN(C(=O)CCl)CC1	-7	11%	-0.3	-2	-19
Cc1ccc(OCC(=O)Nc2sc3c(c2C#N)CC(C)(C)NC3(C)C)cc1	2	10%	-0.7	11	·
COc1ccc(C(=O)Nc2cc(OC)cc(OC)c2)cc1	88	0%	-3.1	-8	-43
Cc1cc(C)c2nc(NC(=O)c3ccc(OCC4CCCO4)cc3)sc2c1 (stereo not drawn)	88	8%	-0.2	-3	-31
Cc1nn(CC(=O)NN)c(C)c1Br	-3	-2%	-1.3	·	·
Cc1ccc(NC(=O)NC(=O)CSc2nnc(-c3ccc(Cl)cc3Cl)n2N)c(C)c1	97	?	1.0	20	-23
CCc1cc(C(=O)N(Cc2ccccc2)c2c(N)n(CCOC)c(=O)[nH]c2=O)sc1C	-5	·	-0.3	·	·
COc1ccc(/C=C(\NC(=O)c2ccc(Cl)cc2)C(=O)NCC2CCCO2)cc1OC (stereo not drawn)	-2	·	-0.9	·	·
Cc1ccc(C)c(NC(=O)CN(C)C(=O)[C@@H](NC(=O)c2ccc(C(C)(C)C)cc2)C(C)C)c1	7	·	-2.0	3	-3
Cc1ccc2c(c1)c1nnc(SCC(=O)Nc3ccc(N(C)C)cc3)nc1n2CC(=O)O	-1	·	39*	·	·

Three compounds drawn at random from those above, as already listed:
SMILES	Mtb bLac sens	Mtb H37Rv	RecA splice inh	Arbovirus anti	YopH PTP inh	others
Cc1cc(C)c2nc(NC(=O)c3ccc(OCC4CCCO4)cc3)sc2c1 (stereo not drawn)	88	8%	-0.2	-3	-31
CCc1cc(C(=O)N(Cc2ccccc2)c2c(N)n(CCOC)c(=O)[nH]c2=O)sc1C	-5	·	-0.3	·	·
Cc1ccc(C)c(NC(=O)CN(C)C(=O)[C@@H](NC(=O)c2ccc(C(C)(C)C)cc2)C(C)C)c1	7	·	-2.0	3	-3

Other compounds:
SMILES	Mtb bLac sens	Mtb H37Rv	RecA splice inh	Arbovirus anti	YopH PTP inh	others
CC(C)CCNC(=O)Nc1ccc2c(c1)N(C)C(=O)CS2	5	2%	0.5	-5	-21
CCOc1cccc2cc(C(=O)NC(C)c3ccccc3)c(=N)oc12 (stereo not drawn)	1	·	-0.9	·	·
CCC(=O)N1c2ccccc2C(N(C(=O)CC)c2ccccc2)CC1C (stereo not drawn)	-5	-6%	-1.0	·	·
COC(=O)CN(c1c(C)cccc1C)S(C)(=O)=O	0	-4%	3.9	3	-24
O=C(CSc1nnnn1-c1ccc2c(c1)OCO2)NCc1ccccc1	-5	-1%	-1.2	-22	-21
O=C(NCC(F)(F)F)c1nn(Cc2ccccc2)c(=O)c2ccccc12	-4	·	-0.5	·	·
CN1CCN(Cc2c(C(=O)N3CCc4ccccc4C3)nc3ccc(Cl)cn23)CC1	-4	·	-3.0	·	·
CC(C)CCOc1ccc(C(=O)O)cc1	-3	5%	-1.4	3	-33
COC(=O)C1CCCN1C(=O)C1CCCN1C(=O)CNC(=O)OCc1ccccc1 (stereo not drawn)	4	-9%	-4.4	5	-44
CCOC(=O)c1c(C)c[nH]c1C	4	-5%	-1.2	23	·
COc1ccc(OCC(O)CNC(=O)Nc2ccccc2)cc1 (stereo not drawn)	-3	2%	0.3	·	·
O=C(NCc1cccc(Cl)c1)c1ccc(S(=O)(=O)Nc2cccc(C(F)(F)F)c2)cc1	2	9%	-0.8	-14	3
CSCCC(NC(=O)COc1ccccc1)C(=O)OCC(=O)c1cc2ccccc2o1 (stereo not drawn)	6	-6%	-2.4	3	-4
Cn1c(C(=O)NCCCN2CCN(c3ccccc3F)CC2)cc2c(=O)n(C)c3ccccc3c21	6	17%	-0.5	-18	7	Arbovirus anti repeat=-25
Cc1ccc(NC(=O)c2cc(-c3ccccc3)n[nH]2)cc1	-6	·	1.8	·	·
COc1ccc(CCn2c(O)c(C=NCc3cccnc3)c(=O)[nH]c2=O)cc1OC	-5	7%	0.5	2	-18
CC(=O)C1=C(O)C(=O)N(c2ccc(Br)cn2)C1c1cccc([N+](=O)[O-])c1 (stereo not drawn)	-1	·	1.9	·	·
Cc1ccc2nc(-c3cccnc3)c(NC3CCCCC3)n2c1	0	-4%	-1.4	7	-16
CCOc1nc2c(c(-c3cccs3)c1C#N)Cc1ccccc1-2	12	-11%	1.2	·	·
CCOC(=O)C1=C(c2ccccc2)NC(=O)NC1c1ccc(OC)cc1 (stereo not drawn)	-3	5%	0.3	17	·
CC(C)(C)C1CCC(OC(=O)C[N+]2(C)CCCC2)CC1 (stereo not drawn)	0	2%	-0.1	2	·
Cc1ccc(CNC(=O)C2CCCN(S(=O)(=O)c3c(C)[nH]c(=O)[nH]c3=O)C2)cc1 (stereo not drawn)	-3	-6%	0.8	9	-31
O=C(NCc1cccnc1)C1CCC(CNS(=O)(=O)c2cccc3nsnc23)CC1 (stereo not drawn)	2	-7%	-3.1	·	·
CCC(CC)C(=O)Nc1cccc(C(=O)Nc2ccc3c(c2)OCO3)c1	-6	0%	1.6	-27	-35
O=C(CCCN1C(=O)CCC1=O)Nc1ccc(Br)cc1F	-7	-3%	-0.9	2	14
CCn1cnc2sc(-c3ccccc3)cc2c1=O	-10	7%	2.9	-13	-35
COC(=O)c1cc(Br)c(=O)n(CCC2=CCCCC2)c1	-14	-7%	2.3	-9	29
Cc1ccc(N(CC(=O)N2CCN(c3ccc(F)cc3)CC2)S(=O)(=O)c2c(C)noc2C)cc1	0	·	0.9	·	·
CCOC(=O)CSc1nccc(N(C)C)c1C#N	-7	4%	-1.3	4	-21	Arbovirus anti repeat=0
CCc1ccc(N2C(=O)CN(Cc3sccc3C)C2=S)cc1	-1	-8%	1.0	1	·
O=C(Nc1cccc(Cl)c1)Nc1ccc(Cl)cn1	-11	9%	0.2	8	-32
O=C(c1ccccc1)N1CCN(C(=O)c2cccnc2)CC1	-14	·	0.5	·	·
COc1ccc(-n2nc(C(=O)NCC(=O)NCCCN3CCOCC3)c3ccccc3c2=O)cc1Cl	1	·	0.9	·	·
CC(C)c1ccc(/C=C/C(=O)O)cc1	-3	1%	0.0	·	·
CC(=O)Nc1cc(C(F)(F)F)ccc1N1CCOCC1	-2	-1%	1.1	-6	-8
COc1ccc(CC(=O)N2CCCc3ccccc32)cc1OC	0	2%	-1.4	3	-21
CC(C)(C)c1cc(NC(=O)COC(=O)c2ccc(O)cc2O)n(-c2ccccc2)n1	8	·	13	·	·
COc1ccc(-c2nc3ncccc3o2)cc1NC(=O)c1cccs1	19	·	4.0	·	·
COc1cc(C(=O)Nc2nnc(C3=COCCO3)o2)cc(OC)c1OC	-13	·	-1.1	·	·
c1ccc(CSc2snnc2-c2ccccc2)cc1	10	2%	19	-10	-40
O=C(C1CC2CCC1C2)N1CCN(Cc2ccc3c(c2)OCO3)CC1 (stereo not drawn)	2	-8%	-0.9	3	7
Cc1csc2c(=O)sc(NC(=O)c3ccc(F)cc3Cl)nc12	-1	-1%	1.2	·	·
Cn1c(CSCc2ccccc2)nnc1SCC(=O)Nc1nccs1	-7	-4%	-0.3	4	-6
COc1ccc(CN2CCSCC2)cc1C	0	-7%	-2.4	6	-15
N/C(=N\OC(=O)c1cccnc1)c1ccc(Cl)cc1Cl	3	3%	0.1	3	·
COCC(=O)Nc1ccccc1NC(C)=O	-3	1%	1.5	-4	7
Cc1ccc2c(CC(=O)OCC(=O)N(CC(C)C)c3c(N)n(Cc4ccccc4)c(=O)[nH]c3=O)coc2c1	4	·	-3.4	·	·
O=C1CC(C(=O)Nc2ccccc2)N=C(N2CCCCC2)N1 (stereo not drawn)	-6	1%	0.8	8	-31
C(=N\n1cnnc1)/c1ccc(N2CCOCC2)cc1	-9	-5%	1.9	2	-28
CCOc1ncccc1C(=O)OC(C)C(=O)Nc1ccc(CC)cc1 (stereo not drawn)	9	57%	1.5	5	·
Cc1nn2c(=O)cc(CSCC(=O)Nc3ccccc3F)nc2s1	4	·	-9.5	·	·
CC1CCN(C(=O)c2cccc(S(=O)(=O)N3CCCc4ccccc43)c2)CC1	3	·	1.9	·	·
COc1cccc(Oc2ccc(N)cc2)c1	97	29%	0.2	-13	12
O=S(=O)(Nc1cccc(C(F)(F)F)c1)c1cnc[nH]1	-4	-2%	0.8	7	-17
NC(=O)c1cc(S(=O)(=O)NCc2cccs2)cs1	5	·	2.6	·	·
Cc1nn(C(=O)C(C)N2C(=O)c3ccccc3C2=O)c(C)c1Br (stereo not drawn)	·	-4%	-1.1	5	-55
Cc1sc2nc(CSC(C)C(=O)Nc3ccc(C(N)=O)cc3)[nH]c(=O)c2c1C (stereo not drawn)	-15	·	-4.6	·	·

Structural class, the compounds so far containing an aryl methoxy group (15)
SMILES	Mtb bLac sens	Mtb H37Rv	RecA splice inh	Arbovirus anti	YopH PTP inh	others
COc1ccc2c(c1)-c1ccccc1S(=O)(=O)N2C(C)=O	-3	-4%	·	4	-22
COc1ccccc1N1CCN(CC(O)c2ccc3cc[nH]c3c2)CC1 (stereo not drawn)	-8	2%	10	2	-12	Arbovirus anti repeat=-2
COc1cc2c(cc1OC)-c1nc3ccccc3c(=O)n1C(C)(C)C2	91	-5%	2.8	0	-6
COc1c(/C=C2\SC(=Nc3ccccc3Cl)NC2=O)cccc1[N+](=O)[O-]	5	·	12	·	·
COc1ccc(C(=O)Nc2cc(OC)cc(OC)c2)cc1	88	0%	-3.1	-8	-43
COc1ccc(/C=C(\NC(=O)c2ccc(Cl)cc2)C(=O)NCC2CCCO2)cc1OC (stereo not drawn)	-2	·	-0.9	·	·
COc1ccc(OCC(O)CNC(=O)Nc2ccccc2)cc1 (stereo not drawn)	-3	2%	0.3	·	·
COc1ccc(CCn2c(O)c(C=NCc3cccnc3)c(=O)[nH]c2=O)cc1OC	-5	7%	0.5	2	-18
CCOC(=O)C1=C(c2ccccc2)NC(=O)NC1c1ccc(OC)cc1 (stereo not drawn)	-3	5%	0.3	17	·
COc1ccc(-n2nc(C(=O)NCC(=O)NCCCN3CCOCC3)c3ccccc3c2=O)cc1Cl	1	·	0.9	·	·
COc1ccc(CC(=O)N2CCCc3ccccc32)cc1OC	0	2%	-1.4	3	-21
COc1ccc(-c2nc3ncccc3o2)cc1NC(=O)c1cccs1	19	·	4.0	·	·
COc1cc(C(=O)Nc2nnc(C3=COCCO3)o2)cc(OC)c1OC	-13	·	-1.1	·	·
COc1ccc(CN2CCSCC2)cc1C	0	-7%	-2.4	6	-15
COc1cccc(Oc2ccc(N)cc2)c1	97	29%	0.2	-13	12

From PubChem
